Lassa entry inh – blocks Lassa virus binding to or entry into cells; actives 1.2% (n = 300,000); Potency, µM (top dose mostly 37.9 µM), inactives show at the top dose activity change, negative = inhibition, actives largely listed as inhibitors; Lassa virus pseudotype entry inhibition, cell reporter; control for the full effect not named in the record; active means well fitted inhibition curve with a large enough effect; inconclusive means small, poorly fitted or top-dose-only effect, or effect the other way; inactive means flat fitted curve, though single readings scatter; tested in HEK293 cells; also: % is scaled to controls: 0 for no effect and ±100 for the full control effect; nearly all actives have a fitted effect of over 50% in size; luciferase read-out
Cruzain noTriton – cruzain (T. cruzi) inhibition without detergent | actives 2.3% (n = 200,000) | Potency, µM, inactives show max response, negative = inhibition, hits mostly inhibitors | purified cruzain, Z-FR-AMC fluorescence, no detergent | P25779;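 also: plate controls were enzyme without inhibitor for no effect and buffer without enzyme for full effect; nearly all actives have a fitted effect of over 40% in size; top concentration of the series not given in the record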
Target sequence (P25779 123-467 limits assumed): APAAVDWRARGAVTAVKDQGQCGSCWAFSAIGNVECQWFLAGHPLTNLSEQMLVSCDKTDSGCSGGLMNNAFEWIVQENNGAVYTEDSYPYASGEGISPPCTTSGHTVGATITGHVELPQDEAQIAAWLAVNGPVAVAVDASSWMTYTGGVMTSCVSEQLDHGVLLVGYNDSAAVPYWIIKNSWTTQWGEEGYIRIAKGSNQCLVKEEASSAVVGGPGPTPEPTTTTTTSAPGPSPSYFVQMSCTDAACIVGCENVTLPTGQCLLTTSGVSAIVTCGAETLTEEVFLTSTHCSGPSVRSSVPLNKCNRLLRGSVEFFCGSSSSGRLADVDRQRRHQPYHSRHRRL
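Purified cruzain at 1.5 nM, pre-incubated 15 min with compound at room temperature in 100 mM sodium acetate pH 5.5, 5 mM DTT, 0.00005% Triton X-100. Reaction started with 2 uM Z-FR-AMC; AMC fluorescence increase over 60 s gives rate.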
2A StopGo – FMDV 2A StopGo reporter, luciferase signal | human cells with a luciferase reporter of 2A StopGo recoding; control for the full effect not named in the record | Potency, µM (top dose mostly 57.9 µM), for inactives: at the highest dose signal change, negative = less light | actives 1.2% (n = 410,000) | AID 1159524; active = well fitted falling curve with a large enough effect; inconclusive = small, poorly fitted or top-dose-only effect; inactive = no such curve, though single readings can be large or run the other way; tested in HEK293T cells; also: % is scaled to controls: 0 for no effect and ±100 for the full control effect; nearly all actives have a fitted effect of over 45% in size; luciferase light after 4 h
Cruzain inh Det – inhibitors of Trypanosoma cruzi cruzain with detergent; P25779; purified cruzain, Z-FR-AMC fluorescence, 0.01% Triton; Potency, µM, inactives show max response, negative = inhibition, most hits filed as inhibitors; actives 0.43% (n = 200,000); AID 1478;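 also: plate controls were neutral wells for no effect and buffer without enzyme for full effect; nearly all actives have a fitted effect of over 40% in size; top concentration of the series not given in the record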
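Purified cruzain (1.5 nM final) was preincubated with compounds for 15 min at room temperature in 100 mM sodium acetate pH 5.5, 5 mM DTT, 0.01% Triton X-100. Reaction started with 2 uM Z-FR-AMC; AMC fluorescence change over 60 s gave activity.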
RE007 growth inh – less growth of the S. pombe RE007 Vpr strain. S. pombe RE007 Vpr strain, BacTiter-Glo ATP luminescence, 24 h; control for the full effect not named in the record. Potency, µM (titrated, usually from 92.2 µM), inactives show at the highest dose activity change, negative = less growth. actives 0.21% (n = 360,000). AID 651644; active = well fitted falling curve with a large enough effect; inconclusive = small, poorly fitted or top-dose-only effect; inactive = no such curve, though single readings can be large or run the other way;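 also: % is scaled to controls: 0 for no effect and ±100 for the full control effect; nearly all actives have a fitted effect of over 50% in size; the assay follows cell death caused by Vpr and the record does not say whether a fall means rescue or toxicity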
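Fission yeast RE007 carrying one integrated HIV-1 vpr copy, seeded at OD 0.01 in PMG+AL medium with 23 nL pinned compound. Grown 24 h at 30 degrees; viability read by BacTiter-Glo luminescence after 5 min.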
Marburg entry inh – inhibitors of Marburg virus binding or cell entry. Marburg virus pseudotyped entry inhibition, cell reporter; control for the full effect not named in the record; about a third of the inactives were read at about 46 µM. Potency, µM (highest dose often 37.8 µM), inactives show at the top dose activity change, negative = inhibition, actives largely listed as inhibitors. actives 1.8% (n = 300,000); active = well fitted inhibition curve with a large enough effect; inconclusive = small, poorly fitted or top-dose-only effect, or effect the other way; inactive = flat fitted curve, though single readings scatter; tested in HEK293 cells; about a fifth of its hits are not listed in these tables; also: % is scaled to controls: 0 for no effect and ±100 for the full control effect; luciferase read-out
NS1 inh – inhibitors of influenza NS1 protein function; S. cerevisiae slowed by influenza A NS1, growth recovery by OD600; Potency, µM (highest dose often 46.1 µM), without a hit: top-dose activity, positive = more growth; actives 0.4% (n = 270,000); AID 2326; active means well fitted rising curve with a large enough effect; inconclusive means small, poorly fitted or top-dose-only effect; inactive means no such curve, though single readings can be large or run the other way; also: nearly all actives have a fitted effect of over 50% in size
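S. cerevisiae expressing influenza A NS1, grown in glucose, washed, then diluted 1:100 into pH 6.0 -URA galactose medium with 23 nl compound. Growth recovery read as OD600; NS1-free strain serves as control.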
SARS PLpro yeast – SARS-CoV PLP inhibition in yeast; AID 485353; actives 0.19% (n = 330,000); Potency, µM (titrated, usually from 32.9 µM), without a hit: at the top dose activity, positive = growth rescue; S. cerevisiae expressing SARS-CoV PLpro, growth rescue; control for the full effect not named in the record; active means well fitted rising curve with a large enough effect; inconclusive means small, poorly fitted or top-dose-only effect; inactive means no such curve, though single readings can be large or run the other way; also: 0% is about no effect; nearly all actives have a fitted effect of over 55% in size; growth read by luminescence after 48 h
* hit, by the source's call; ? = inconclusive; . = not tested or not shown; & = joins results of further samples; [ ] = another dose, or the depositor's remark. Unless noted, calls follow the shape of the dose curve; as a rule, active = well fitted curve in the direction sought with a large enough effect; inconclusive = small, poorly fitted or top-dose-only effect, or another doubt; inactive = no such curve, though single readings can be large; an effect the other way counts as inactive or inconclusive. Potency is read from the fitted curve at half-maximal effect. Outcome played no part in choosing rows; 4.7% or so of the library scored in one or more.

SMILES	Lassa entry inh	Cruzain noTriton	2A StopGo	Cruzain inh Det	RE007 growth inh	Marburg entry inh	NS1 inh	SARS PLpro yeast
CC(C)Cc1nn2c(=O)cc(COC(=O)c3ccccc3NC(=O)c3ccccc3)nc2s1	26%[46.1 µM]	9%	15%	1.2%	.	.	.	.
COc1ccc(S(=O)(=O)Nc2cc3c(cc2C(C)=O)OCO3)cc1	.	.	14%	.	2%	.	1%	-1%
O=C(COc1ccccc1)Nc1cccc2nsnc12	12%	-6%	42%[activator]	-1.0%	-11%	3%	-10%	1%
Cn1c(=O)c2c(ncn2CC(=O)N2CCN(c3cccc(Cl)c3)CC2)n(C)c1=O	-8%	2%	-29%	1.2%	0%	0%[46.1 µM]	5%	1%
CC1(C)CC2(CCO1)OC(=O)CC2C(=O)Nc1ccc(Br)cc1 (stereo unspecified)	7%	.	12%	.	12%	1%[46.1 µM]	-4%	1%
Cc1cccc(C)c1OC(=O)CSc1nnc(-c2ccccc2)o1	3%	-7%	-15%	0.2%	-8%	-2%[46.1 µM]	3%	7%
COc1ccc(CCNC(=O)CN2C(=O)COc3ccc(C)cc32)cc1OC	?	-5%	-19%	-5.0%	.	8%[46.1 µM]	.	.
O=C(O)c1cc2c(ccc3ccccc32)o1	3%	2%	.	2.3%	5%	?	-120%	-3%
CC(Sc1ncnc2c1cnn2-c1ccccc1)C(=O)NCC1CCCO1 (stereo unspecified)	.	.	-4%	.	-15%	.	-5%	-11%
COc1cccc(/C=N/NC(=O)c2c(C)nc3ccc(Cl)cn23)c1O	?	.	11%	.	1%	1µM*	-26%	6%
CC(C)(C)C(=O)CSc1nc2ccsc2c(=O)n1Cc1ccccc1Cl	27%[46.1 µM]	-21%	-4%	-0.5%	.	.	.	.
O=C(NN=Cc1cc(Br)c(O)c(Br)c1)c1ccccc1NS(=O)(=O)c1cccs1	1%	.	?	.	-9%	3%	.	5%
Cc1ccccc1OCc1cc(=O)n2c(-c3ccccc3)csc2n1	-5%[46.1 µM]	1%	11%	-1.9%	.	10%[46.1 µM]	.	.
C/C(=C1/SC(N2CC(C)OC(C)C2)=NC1=O)c1ccccc1 (stereo unspecified)	?	3%	-13%	-1.3%	-1%	19%	-14%	4%
O=C(COc1ccc([N+](=O)[O-])cc1)Nc1nc(-c2ccccn2)cs1	?	.	-11%	.	?	?	.	2%
CN(C)c1cccc(C(=O)OCC(=O)N2CCc3ccccc3C2)c1	-13%	.	10%	.	9%	19%[46.1 µM]	.	-6%
O=C(/C=C/c1ccc(Br)cc1)NC(=O)c1ccccc1O	-18%	.	-60%	.	?	8%[14.2 µM]	2%	-4%
Cc1nc2ccn(Cc3cccnc3)c(=O)c2cc1C(=O)NCc1ccccc1	-30%[46.1 µM]	-8%	-19%	-5.6%	.	.	.	.
Cn1cc(C(=O)Nc2ccc(F)c(F)c2)cn1	8%	-5%	0%	1.2%	16%	2%[46.1 µM]	-4%	1%
O=C(c1ccccc1)c1cc2cc(Cl)ccc2[nH]1	19%[46.1 µM]	.	26%	.	9%	25%[46.1 µM]	2%	1%
CS(=O)(=O)c1ccc(C(=O)NC(Cc2ccccc2)c2ccccc2)cc1 (stereo unspecified)	0%	.	16%	.	-13%	6%[46.1 µM]	-4%	-6%
COc1ccc(N2CCC(CNC(=S)Nc3cc(C)ccc3C)C2)cc1 (stereo unspecified)	.	.	9%	.	-5%	.	-61%	-2%
O=C1CCN(Cc2ccccc2)CCN1CCO	.	.	-5%	.	1%	.	0%	-2%
Cc1cc(C)c(OCC(=O)OCC(=O)N2CCCc3ccccc32)c(C)c1	20%	.	-27%	.	-19%	17%[46.1 µM]	.	-3%
COC(=O)[C@H](CCSC)NC(=O)[C@@H](Cc1cnc[nH]1)NC(=O)OCc1ccccc1	21%[46.1 µM]	.	-9%	.	4%	14%[46.1 µM]	1%	0%
CCCn1c(C)cc(C(=O)CSc2nc3nc(C)cc(C)n3n2)c1C	2%	-6%	-28%	1.2%	6%	19%	7%	6%
Cc1ccccc1NC(=O)C(=O)Nc1ccccc1C	14%[46.1 µM]	.	32%[activator]	.	33%	?	4%	-1%
O=C1N/C(=C/c2ccc(N3CCOCC3)o2)C(=O)N1c1ccccc1	?	-9%	?	-11%	-16%	?	-11%	-36%
O=C(NNc1cc(Br)c(O)c(Br)c1)c1ccccc1	1%	.	-21%	.	?	10%[46.1 µM]	.	-1%
Cc1cc(=O)oc2n[nH]c(-c3ccccc3)c12	0%	-2%	-21%	-1.2%	5%	7%	-6%	5%
COc1ccccc1C/C(N)=N/OC(=O)COc1ccccc1C	-1%	.	.	.	-5%	3%	.	-8%
Cc1ccc(CN2CCC(n3nccc3NC(=O)CCOc3ccccc3)CC2)cc1C	.	.	-23%	.	6%	.	-9%	8%
CC(C)CCOC(=O)C1C(c2ccccc2)C(C(=O)O)C1c1ccccc1 (stereo unspecified)	18%	10%	?	1.1%	5%	7%	10%	9%
COc1ccc2oc(=O)c(C(=O)N3CCN(c4ccccc4F)CC3)cc2c1	15%	-8%	15%	-5.9%	-11%	11%	7%	5%
CCc1nnc(NC(=O)c2cc(-c3ccco3)nc3ccccc23)s1	-3%	.	-4%	.	15%	4%[46.1 µM]	.	-1%
Cc1ccc(NC(=O)c2cc3ccccn3n2)cc1F	3%[46.1 µM]	-13%	-10%	-3.1%	.	.	.	.
Cc1ccsc1CN(C(=O)c1ccc(OCC(C)C)cc1)C1CCS(=O)(=O)C1 (stereo unspecified)	8.9µM*	18%	-11%	-8.0%	.	3%[46.1 µM]	.	.
COc1ccc(-n2ccnc(NCc3cccs3)c2=O)cc1OC	-14%[46.1 µM]	0%	0%	-0.2%	.	.	.	.
O=C(NC(=S)N1CCN(C/C=C/c2ccccc2)CC1)c1ccc(Cl)nc1	.	.	0%	.	1%	.	-6%	3%
O=C(O)/C=C/c1cn(-c2ncc(C(F)(F)F)cc2Cl)c2ccccc12	1%	16%	3%	-15%	10%	19%	-10%	-16%
CCOC(=O)N1CCN(C(=O)C(CC(C)C)NC(=O)C2CCCCC2)CC1 (stereo unspecified)	?	-1%	25%	-5.2%	1%	10%	-1%	1%
CCOC(=O)CNC(=O)c1ccc(SCC)cc1	-14%	.	25%	.	43%	?	-1%	0%
N#Cc1ccccc1NC(=O)CSc1nnc(N)s1	-4%[46.1 µM]	-9%	-9%	-1.3%	.	.	.	.
COc1ccc(C(=O)OCc2csc(C)n2)c(O)c1	14%	.	62%[activator]	.	5%	29%	-2%	-6%
CC(OC(=O)CSc1ccc([N+](=O)[O-])cc1)C(=O)NCc1ccco1 (stereo unspecified)	-23%	.	-12%	.	12%	19%	.	-10%
Cc1cc(C)n(-c2nc3sc4c(c3c(=O)[nH]2)CCCC4)n1	.	2%	.	1.5%	.	0%	-14%	-5%
CC(=O)c1ccc(N2C(=NC(=O)C3CCCO3)SC3CS(=O)(=O)CC32)cc1 (stereo unspecified)	-1%[46.1 µM]	.	-1%	.	-6%	?	-9%	0%
Cc1cc(N2CCN(c3ccc(C(F)(F)F)cc3[N+](=O)[O-])CC2)c2ccccc2n1	.	.	?	.	1%	.	-16%	1%
O=C(C[n+]1cc(-c2ccc(F)cc2)n2c1CCC2)OCc1ccccc1	10%	-4%	-13%	-1.7%	0%	?	-1%	-23%
CCOC(=O)C1CCCN(C(=O)c2cc3c(OC)c(OC)c(OC)cc3[nH]2)C1 (stereo unspecified)	-21%[46.1 µM]	.	7%	.	4%	-6%[46.1 µM]	4%	-5%
COc1ccc(CCN(Cc2cc3cccc(C)c3[nH]c2=O)C(=O)N2CCCC2)cc1OC	-18%	23%	-24%	-0.8%	-5%	?	?	0%
CCn1nc(C)c(CNC(=O)c2cc(COc3cncc(Cl)c3)on2)c1C	.	.	1%	.	12%	.	10%	2%
COc1ccc(Cl)cc1C(=O)NNC(=O)CNC(=O)c1ccc(C)s1	-18%[46.1 µM]	.	13%	.	6%	?	.	0%
CCc1ccccc1NC(=O)CN(C)C(=O)COc1ccc(C)nc1[N+](=O)[O-]	?	-3%	-12%	-0.1%	0%	-1%	15%	-25%
Cc1ccc(-c2csc(NC(=O)c3ccc(F)cc3)c2C(=O)O)cc1	?	.	-2%	.	5%	?	-50%	-4%
COC(=O)Cn1cnc2sc(C)c(S(=O)(=O)N3CCN(c4ccccc4OC)CC3)c2c1=O	?	?	-21%	0.7%	-3%	20%[46.1 µM]	-5%	-3%
CCCCCc1nc(N)c(C#N)c(-c2ccco2)c1CCCC	-20%	?	?	-4.6%	-1%	?	0%	-9%
CCn1c(C(=O)Nc2c(C)cccc2C)cc2sc(Cl)cc21	.	9%	?	-3.8%	.	-12%[46.1 µM]	.	.
O=C(NN=C1C2CC3CC(C2)CC1C3)c1cccs1	2%	1%	.	4.8%	-9%	0%	-2%	6%
CCNc1nc(N)nc(Oc2ccc(OCc3ccccc3)nn2)n1	15%	-2%	-11%	7.9%	-9%	1%	9%	-9%

(listing goes on)
SMILES	Lassa entry inh	Cruzain noTriton	2A StopGo	Cruzain inh Det	RE007 growth inh	Marburg entry inh	NS1 inh	SARS PLpro yeast
COc1ccccc1-c1nnc(SCC(=O)Nc2ccc(Cl)cc2Cl)o1	6%	-24%	-3%	-5.3%	-3%	-1%&-1%	-10%	-5%
Cc1cccc(C)c1-n1ncc(C(=O)NC2CCCC2)c1C1CCN(C(=O)OC(C)(C)C)CC1	-1%[46.1 µM]	-4%	-22%	-0.1%	.	.	.	.
COc1ccc(-c2cc(C(=O)NCC(c3ccco3)N(C)C)c3ccccc3n2)cc1OC (stereo unspecified)	-8%	.	-26%	.	-10%	-18%	.	2%
N#Cc1ccccc1-c1ccccc1C(=O)N1CCCCC1	.	.	8%	.	13%	.	18%	-1%
CC(=O)Nc1cccc(OCCCNC(=O)c2ccc(C(C)(C)C)cc2)c1	.	.	15%	.	4%	.	2%	0%
C=C(C)CNC(=S)N/N=C(\C)c1ccc(Cl)s1	-15%	-3%	-2%	-9.5%	.	-2%	-18%	?
CCOc1ccc(-c2nnn(CC(=O)N3CCCC3)n2)cc1OCC	-12%	-21%	8%	-2.4%	-1%	-6%	-2%	18%
COc1ccc(OC)c(NS(=O)(=O)c2cccs2)c1	6%	-1%	17%	-2.3%	7%	0%	-10%	9%

Screening results from PubChem.
